# Screens deposited in PubChem by National Center for Advancing Translational Sciences (NCATS).
# ALDH1A1 block: inhibitors of human aldehyde dehydrogenase 1A1; Potency, µM (top dose mostly 75.3 µM), inactives show at the top dose activity, negative = inhibition, actives largely listed as inhibitors; Purified ALDH1A1, NADH fluorescence, propionaldehyde substrate; AID 1030; 220,000 compounds, 7.3% hits; active = well fitted inhibition curve with a large enough effect, not every such curve was filed as active; inconclusive = small, poorly fitted or top-dose-only effect, or another doubt; inactive = no such curve, though single readings can be large or run the other way;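 note: plate controls were no enzyme wells and a reference inhibitor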
# Target sequence (P00352 whole entry, looked up): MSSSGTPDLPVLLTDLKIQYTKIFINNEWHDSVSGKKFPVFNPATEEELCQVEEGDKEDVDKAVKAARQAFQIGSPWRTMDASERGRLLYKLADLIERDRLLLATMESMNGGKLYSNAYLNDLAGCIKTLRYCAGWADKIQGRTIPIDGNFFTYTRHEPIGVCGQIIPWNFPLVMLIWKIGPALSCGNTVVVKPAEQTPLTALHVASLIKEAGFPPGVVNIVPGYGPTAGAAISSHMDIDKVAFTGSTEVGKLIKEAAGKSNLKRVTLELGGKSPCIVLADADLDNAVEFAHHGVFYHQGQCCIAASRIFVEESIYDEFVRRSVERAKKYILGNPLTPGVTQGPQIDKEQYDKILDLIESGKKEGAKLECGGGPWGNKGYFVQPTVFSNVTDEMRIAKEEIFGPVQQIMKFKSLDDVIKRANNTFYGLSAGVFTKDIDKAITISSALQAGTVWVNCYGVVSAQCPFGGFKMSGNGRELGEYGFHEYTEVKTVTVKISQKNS
# Luc counter: blocks Kinase-Glo luciferase, a counter-screen artifact; Q27757; Kinase-Glo luciferase, ATP luminescence, 8 min; 200,000 compounds, 0.28% hits; AID 1379; Potency, µM (top dose mostly 38.3 µM), for the others: at the top dose activity change, negative = inhibition, actives largely listed as inhibitors; note: % is set by controls: 0 for no effect and ±100 for the full control effect; nearly all actives have a fitted effect of over 60% in size
#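 Kinase-Glo luciferase light output from ATP and luciferin was measured with 10 uM ATP, within the enzyme's linear range. Buffer: 50 mM imidazole pH 7.2, 50 mM KCl, 7 mM MgCl2, 0.01% Tween 20, 0.05% BSA; luminescence read after 8 min at ambient temperature.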
# Lamin A splicing: changes lamin A minigene splicing in HeLa cells | HeLa LMNA splicing GFP/RFP minigene ratio, 48 h | Potency, µM (highest dose often 46.1 µM), inactives show at the top dose ratio change, negative = inhibition, most hits filed as inhibitors | 200,000 compounds, 0.01% hits | AID 1487; active = well fitted inhibition curve with a large enough effect in the signal ratio, with a control signal flat, not every such curve was filed as active; inconclusive = small, poorly fitted or top-dose-only effect, or effect the other way, or a change in a side signal; the % refers to the signal ratio; note: % is set by controls: 0 for no effect and ±100 for the full control effect
#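 S3 HeLa stable clones carrying a lamin A-EGFP splicing minigene plus DsRed2 were seeded at 600 cells/well in Opti-MEM with 2% FBS, pin-dosed and incubated 48 h at 37°C. Acumen cytometry (488 nm) gave the GFP/RFP total-intensity ratio.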
# SMN2 splice up: SMN2 splice variant enhancement. HEK293 SMN2-luciferase splicing reporter, luminescence, 30-36 h. Potency, µM (highest dose often 46.1 µM), for the others: at the top dose activity change, positive = activation, usual class: activators. 210,000 compounds, 2.8% hits. AID 1458; note: % of control where 0% means no effect; nearly all actives have a fitted effect of over 55% in size
#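 HEK293 cells carry an SMN2 minigene-luciferase reporter in which exon 7 inclusion puts luciferase in frame. Cells were seeded at 2000 cells/well, attached for 10-12 hours, then exposed to compounds for 30-36 hours at 37C before ONE-Glo luminescence.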
# RECQ1 inh: inhibitors of human RECQ1 DNA helicase | P46063 | RECQ1 DNA unwinding, red fluorescence kinetic read | Potency, µM (titrated, usually from 57.3 µM), for the others: top-dose activity, negative = inhibition, usual class: inhibitors | 240,000 compounds, 0.54% hits | AID 2549;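 note: plate controls were vehicle for no effect and no enzyme for full effect; nearly all actives have a fitted effect of over 30% in size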
#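 RECQ1T1 50 nM; forked duplex (20 bp + 30-nt ss tails) 200 nM, ATP 2 mM final; pH 8.0, 2 mM MgCl2, 2.5 ug/ml poly(dI-dC); 15 min compound preincubation; discontinuous kinetic read over 2 h at RT.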
# L3MBTL1 block: L3MBTL1 (human) inhibition; AlphaScreen L3MBTL1–H3K9me1 peptide binding; Potency, µM (titrated, usually from 57.1 µM), for the others: top-dose activity, negative = inhibition, actives largely listed as inhibitors; 230,000 compounds, 0.66% hits; AID 485360; note: % is set by controls: 0 for no effect and ±100 for the full control effect; nearly all actives have a fitted effect of over 60% in size
#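 L3MBTL1 50 nM + b-AHA-H3(1-15)K9me1 75 nM, 30 min RT; compound added, 30 min RT; streptavidin donor/Ni-chelate acceptor beads 10 ug/mL each final, 30 min RT dark; AlphaScreen read.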
# Tau ThT inhib: tau fibrillization inhibition (ThT binding). P10636. recombinant tau K18 P301L (four-repeat tau fragment), heparin-induced fibrillization, ThT fluorescence. Potency, µM (top dose mostly 57.4 µM), for the others: at the highest dose activity, negative = inhibition, hits mostly inhibitors. 270,000 compounds, 2.1% hits; note: % is set by controls: 0 for no effect and ±100 for the full control effect; nearly all actives have a fitted effect of over 55% in size
# Target sequence (P10636 561-689 P618L limits assumed): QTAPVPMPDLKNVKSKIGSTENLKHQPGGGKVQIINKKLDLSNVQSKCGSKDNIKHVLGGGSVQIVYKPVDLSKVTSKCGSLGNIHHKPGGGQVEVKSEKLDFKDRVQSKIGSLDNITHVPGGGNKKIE
#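 Recombinant human tau K18 fragment […] carrying P301L, 15 uM unlabeled plus 0.24 uM Alexa 594-labeled, was fibrillized with 20 uM heparin in 100 mM sodium acetate pH 7 for 6 hr at 37 C; 30 uM ThT fluorescence read after 1 hr.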
# The depositor's hits bear a star; i = inactive; ? = inconclusive; . = not tested or not shown; [ ] = dose if it differs, or a comment. Unless noted, calls come from the whole dose curve; as a rule, active = well fitted curve in the direction sought with a large enough effect; inconclusive = small, poorly fitted or top-dose-only effect, or another doubt; inactive = no such curve, though single readings can be large; an effect the other way counts as inactive or inconclusive. Potency is the fitted concentration of half-maximal effect.
SMILES,ALDH1A1 block,Luc counter,Lamin A splicing,SMN2 splice up,RECQ1 inh,L3MBTL1 block,Tau ThT inhib
C/C(=N\NC(=O)c1ccc(NS(=O)(=O)c2cccs2)cc1)c1ccc2ccccc2c1,?,0%,1%,6%,2%,1%,5%
Cc1c(-c2ccccc2)[nH]n2c(=O)c3c(nc12)CCCC3,-6%,-5%,6%,11µM*,i,3%,?
CCN(CC)c1ncnc2c1[nH]c1ccccc12,8%,-3%,?,-67%[inhibitor],i,.,-13%
O=[N+]([O-])c1cccc(-c2n[nH]c(=S)n2Cc2ccccc2)c1,?,-1%,?,-4%,i,-1%,-11%
CC(=O)c1cc(OC(=O)c2ccncc2)ccc1OC(=O)c1ccncc1,5%,-2%,12%,15%,0%,-4%,?
Cc1ccc(OCCN2CCN(C)CC2)c([N+](=O)[O-])c1,?,3%,-2%,5%,2%,2%,-7%
CCOc1cc(Br)c(CC(=O)O)cc1OCC,.,.,.,.,-7%,.,.
C=CCc1ccc(OCCN2CCc3ccccc3C2)c(OC)c1,?,0%,.,6%,i,-5%,-11%
CCCCC1=CC2=CC(=O)C(C)(OC(=O)CC)C(=O)C2=CN1Cc1ccc(OC)cc1 (configuration not stated),10%[13.5 µM],-4%[7.66 µM],0%[9.22 µM],-6%[9.22 µM],-11%[11.5 µM],.,-4%[11.5 µM]
COc1ccc(Cc2nc(=S)[nH][nH]2)cc1Br,6.3µM*,3%,-18%[46 µM],14%,-1%,-3%[11.4 µM],-1%
CN(CCc1ccccn1)C(=O)c1nn2c(C(F)(F)F)cc(-c3ccco3)nc2c1Cl,25µM*,2%,29%,-15%,0%,18%,?
Nc1c(Cl)ncnc1N/N=C/c1cccnc1,.,.,.,.,-2%,.,.
C=CC[C@@H]1Cc2c(Br)ccc(Br)c2[C@@H](CC=C)N1,-1%,-5%,8%,-3%,4%,36%[activator],?
CCCC(=O)Nc1nn(C)c2nc3c(C)cccc3cc12,?,-2%,-1%,-3%,i,9%,?
O=C1c2cccc3cccc(c23)C(=O)N1c1ccccn1,?,1%,8%[46 µM],13%,-13%,-15%,-10%
Cn1c(/C(C#N)=C/c2ccncc2)nc2ccccc21,-1%,-2%,?,-6%,-3%,-1%,-15%
CCCCNC(=S)N1CCN(Cc2ccc3c(c2)OCO3)CC1,?,0%,9%[46 µM],-21%,0%,11%,3%
Cc1ccc(CN2CCN(CC3CC4C=CC3C4)CC2)cc1 (configuration not stated),?,-5%,6%,18%,20%,.,-18%
Cc1cccc(COCC(Cc2ccccc2)N2CCN(C(=O)c3cccc(Cl)c3)CCC2=O)c1 (configuration not stated),-6%,1%,?,-3%,-4%,-3%,?
COc1ccccc1N1C(=O)C2C(C(=O)c3ccccc3)=NN(c3ccccc3OC)C2C1=O (configuration not stated),.,.,.,.,-23%,.,.
CSc1ccc(/C=N/n2c(C)nnc2C)cc1,0%,3%,?,10%,i,0%,-1%
CCC(=O)Nc1ccc(C(=O)CN2CCC(C)CC2)cc1,?,2%,.,12%,i,.,?
C=CCNCC(O)COc1ccc(C(C)=O)cc1OC (configuration not stated),.,.,.,.,i,13%,-5%
CCCCn1ccc(=O)c2c(C(F)(F)F)nccc21,1%,-2%,?,-10%,-3%,.,8%
Cc1ccc(OCCCCn2ccnc2C)c(C)c1,?,0%,7%[46 µM],-34%[inhibitor],i,-10%,-13%
COc1ccc(NC(=O)c2cc3ccc4c5ccccc5[nH]c4c3cc2O)cc1,4%,.,.,.,-4%,15%,2.2µM*
COc1ccc(OC)c(C2C3=C(N=C4SCC(=O)N42)c2ccccc2CC3)c1 (configuration not stated),?,1%,?,-6%,-14%,-30%,?
FC(F)(F)c1cc(Oc2ccc(Cl)cc2)ncc1-c1nnc(-c2ccc(Cl)cc2)o1,?,.,.,.,8%,19%,-8%
COc1ccccc1Oc1ccc(N/C=C/C(=O)c2ccco2)cc1,-8%,?,?,11µM*,10%,?,?

# Ordered by length of the SMILES (ascending): part of the list above
SMILES,ALDH1A1 block,Luc counter,Lamin A splicing,SMN2 splice up,RECQ1 inh,L3MBTL1 block,Tau ThT inhib
CSc1ccc(/C=N/n2c(C)nnc2C)cc1,0%,3%,?,10%,i,0%,-1%
COc1ccc(Cc2nc(=S)[nH][nH]2)cc1Br,6.3µM*,3%,-18%[46 µM],14%,-1%,-3%[11.4 µM],-1%
Cn1c(/C(C#N)=C/c2ccncc2)nc2ccccc21,-1%,-2%,?,-6%,-3%,-1%,-15%
O=C1c2cccc3cccc(c23)C(=O)N1c1ccccn1,?,1%,8%[46 µM],13%,-13%,-15%,-10%
Cc1ccc(OCCN2CCN(C)CC2)c([N+](=O)[O-])c1,?,3%,-2%,5%,2%,2%,-7%
Cc1c(-c2ccccc2)[nH]n2c(=O)c3c(nc12)CCCC3,-6%,-5%,6%,11µM*,i,3%,?
C=CC[C@@H]1Cc2c(Br)ccc(Br)c2[C@@H](CC=C)N1,-1%,-5%,8%,-3%,4%,36%[activator],?
CC(=O)c1cc(OC(=O)c2ccncc2)ccc1OC(=O)c1ccncc1,5%,-2%,12%,15%,0%,-4%,?
O=[N+]([O-])c1cccc(-c2n[nH]c(=S)n2Cc2ccccc2)c1,?,-1%,?,-4%,i,-1%,-11%
COc1ccc(OC)c(C2C3=C(N=C4SCC(=O)N42)c2ccccc2CC3)c1 (configuration not stated),?,1%,?,-6%,-14%,-30%,?
CN(CCc1ccccn1)C(=O)c1nn2c(C(F)(F)F)cc(-c3ccco3)nc2c1Cl,25µM*,2%,29%,-15%,0%,18%,?
C/C(=N\NC(=O)c1ccc(NS(=O)(=O)c2cccs2)cc1)c1ccc2ccccc2c1,?,0%,1%,6%,2%,1%,5%

# Not all compounds are listed (hit frequency here may not be typical).
